Screening data deposited in PubChem by several laboratories.
Sa ugtP lethal: growth inhibition of S. aureus ugtP deletion strain; S. aureus RN4220 ugtP deletion, OD600 growth, 16 h; some inactives read as strong as hits; AID 1259309; 330,000 tested, 0.54% active; growth inhibition, % (concentration not given with the values);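 active means z-score under -3 and OD600 up to 0.15 on both plates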;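 further: plate controls were untreated wells for no effect and antibiotic for full effect; wells of about 80 µL received 100 nL stock; the first replicate is given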
RN4220 kill: S. aureus RN4220 growth inhibition | inhibition, % (no concentration beside the values) | OD600, 16 h | 330,000 tested, 0.33% active;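 active means z-score of -3 or lower and OD600 up to 0.18 on both plates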;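 further: plate controls were untreated cells for no effect and reference antibiotic for full effect; stock transfer was 100 nL into about 80 µL; one replicate is shown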
Mtb hypoxia rep: reduces hypoxia-regulated biosensor signal in M. tuberculosis | M. tuberculosis hypoxia-regulated fluorescent reporter, fluorescence | fluorescence inhibition, % (test concentration not listed) | 300,000 tested, 0.1% active | AID 1159583;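 active means 35 to 45% if threefold the growth effect, above 45% if 1.5-fold the growth effect; inactive means the rest, general growth blockers included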;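 further: wells of about 50 µL received 100 nL stock; 0% = vehicle wells and 100% = reference inhibitor wells; whole bacteria with a GFP reporter of the hypoxia response; strong numbers were not always called active; many hits fall short of the cut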
Autofluor counter: flagged as autofluorescent in microsphere protease counterscreen; compound autofluorescence counterscreen, microsphere flow cytometry; hits give high values; 360,000 tested, 3.1% active; fluorescence intensity (no concentration beside the values); AID 624483;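 active means at least 3 SD above the mean of all compounds, about 16000 in these data; inconclusive means too few beads counted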;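 further: 100 nL of 1 mM stock went into each well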
BJeLR viability: BJeLR cell viability loss; 300,000 tested, 0.17% active; inhibition, % (no concentration beside the values); BJeLR (HRASV12) viability, CellTiter-Glo ATP luminescence, 48 h; reference of the scale not given here;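 active means replicate mean above 50%; inconclusive means above 50% but judged a plate artefact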;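 further: 50 nL library stock added to about 25 µL; numbers are from one replicate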
PrP 5UTR inh: suppresses PrP 5' UTR mRNA reporter expression; cell-based PrP 5' UTR mRNA reporter, plate reader; inhibition, % (no concentration beside the values); 340,000 tested, 0.35% active; AID 488862;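 active means every replicate at 50% or more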;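 further: 0 = median of the neutral control wells; tested in H4 reporter cells; numbers are from one replicate; inactives centre near -14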
Mtb hypoxia rep growth: also measured in Mtb hypoxia rep; calls as there; growth inhibition, %; measured here: M. tuberculosis growth (absorbance);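 0% = vehicle and 100% = reference antibiotic; read after six days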
* = called active by the depositor; ? = inconclusive; nt = not tested or not shown. Rows are unselected; any-hit rate near 4%.

compound	Sa ugtP lethal	PrP 5UTR inh	BJeLR viability	Autofluor counter	RN4220 kill	Mtb hypoxia rep	Mtb hypoxia rep growth
Cc1cc(=O)[nH]c(NN=Cc2ccc(-c3ccc(F)cc3)o2)n1	-12	nt	nt	nt	-1.6	-4	8
COc1cc(CCCN2CCNCC2Cc2cccc3ccccc23)cc(OC)c1OC (configuration not stated)	1	nt	nt	nt	1.4	9	14
COc1cccc(-c2nc(CS(=O)(=O)CC(=O)NCCc3cc(OC)ccc3OC)c(C)o2)c1	2	-11	3	4428	-5.4	-6	-19
O=C(Nc1cccc(F)c1)C1CCCN(S(=O)(=O)c2cccc3cccnc23)C1 (configuration not stated)	1	-19	6	5163	2.7	-2	1
CCn1c(=O)cc(OCC(=O)N(C)C2CCCCC2)c2ccccc21	5	-41	-3	?	1.8	17	10
CC(=O)c1c(N2CCCCC2)nc(=S)n(-c2ccccc2)c1C	-9	-4	1	3365	-8.5	10	11
O=C(CC12CC3CC(C1)CC(CC(=O)N1CCCC1)(C3)C2)N1CCCC1	-2	-6	1	11372	1.6	7	0
Cc1cccc(Cn2ncc(Cl)c(Cl)c2=O)c1	15	17	-1	16414*	2.7	nt	nt
Cc1noc(C)c1COC(=O)c1ccccc1NC(=O)c1ccco1	5	-1	-9	4373	6.6	14	8
CCN(CC)c1ccc(C=Nc2ccc(C)cc2C)c(O)c1	-1	-28	5	4378	-0.4	-3	12
COc1ccc(S(=O)(=O)NN(C)c2ncc(C(F)(F)F)cc2Cl)cc1	-13	-8	-9	2536	5.9	10	-5
Cc1cc(NC(=O)CN2C(=O)NC(Cc3ccccc3)C2=O)no1 (configuration not stated)	-2	-21	-5	2467	6.0	11	7
COc1ccc(C(=O)NNS(=O)(=O)c2ccc(C)cc2)cc1	0	-25	-4	2459	1.9	6	10
COC(=O)NN=Cc1ccc(OS(=O)(=O)c2ccc(C)cc2)c(OC)c1	-6	nt	nt	nt	-1.4	-7	3
CCOc1ccc(NC(=O)CN(C)C(=O)c2cc3c(s2)CCC(C)C3)cc1OCC (configuration not stated)	14	-20	nt	6443	-2.9	0	-1
COc1ccc(C)cc1NC(=O)CNCc1cccs1	-4	-16	-6	8678	-1.3	-17	2
COc1ccc(NC(=O)CC2SC(=NCc3ccccc3OC)NC2=O)cc1 (configuration not stated)	-2	-6	10	10783	3.1	-2	0
COc1ccc(Nc2ncnc3sc(-c4ccccc4)cc23)cc1OC	-12	1	0	2343	6.9	2	2
Cc1cccc2sc(NNC(=O)c3cc(=O)c4ccccc4o3)nc12	nt	-71	-1	4377	nt	nt	nt
Cc1ccccc1NC(=S)N(Cc1ccco1)C(C)c1cccs1 (configuration not stated)	19	-19	0	4505	6.5	-9	3
Cc1cc(NC(=O)Cn2nc([N+](=O)[O-])c(Br)c2C)no1	10	-33	2	nt	4.7	7	8
COc1ccc(CNC(=O)CC2(CC(=O)O)CCCCC2)cc1	-4	-12	-1	3433	0.9	-6	-3
CSc1nnc2n(-c3ccc(C)cc3)c(=O)c3c4c(sc3n12)COC(C(C)C)C4 (configuration not stated)	4	2	7	5659	0.4	5	8
CCCCOc1ccc(C(=O)N/C(=C\c2cccc([N+](=O)[O-])c2)C(=O)OC(C)C)cc1	1	0	6	2724	-0.2	nt	nt
O=C(Nc1ccc(NC(=O)c2ccccc2F)cc1)c1cccs1	5	-58	nt	7735	3.5	5	12
CCCCN1C(=N)N([C@@H](CCC)CN2CCC[C@H]2CN2C(N)=NC[C@H]2C(C)C)C[C@H]1[C@H](C)CC	0	-7	nt	3574	5.4	-2	11
COc1ccc(CCNC(=O)C2(c3ccccc3)CC2)cc1	5	-8	2	6091	1.9	2	-1
Cc1cc(C)c(NS(=O)(=O)c2ccc(NC(=O)/C=C/C(=O)O)cc2)c(C)c1	-5	nt	-18	nt	-3.2	-4	2
CC1(C)CC(=O)/C(=C(\O)CCCN2C(=O)c3ccccc3C2=O)C(=NCCO)C1	2	-11	-12	5006	5.5	9	13
Oc1ccc2cc(Br)ccc2c1CN1CCCC1	-4	2	-5	3531	0.4	8	0

Overlap with the part before: 5 compounds; new compounds follow.
compound	Sa ugtP lethal	PrP 5UTR inh	BJeLR viability	Autofluor counter	RN4220 kill	Mtb hypoxia rep	Mtb hypoxia rep growth
CCCCN1C(=N)N([C@@H](CCC)CN2CCC[C@H]2CN2C(N)=NC[C@H]2C(C)C)C[C@H]1[C@H](C)CC	0	-7	nt	3574	5.4	-2	11
COc1ccc(CCNC(=O)C2(c3ccccc3)CC2)cc1	5	-8	2	6091	1.9	2	-1
Cc1cc(C)c(NS(=O)(=O)c2ccc(NC(=O)/C=C/C(=O)O)cc2)c(C)c1	-5	nt	-18	nt	-3.2	-4	2
CC1(C)CC(=O)/C(=C(\O)CCCN2C(=O)c3ccccc3C2=O)C(=NCCO)C1	2	-11	-12	5006	5.5	9	13
Oc1ccc2cc(Br)ccc2c1CN1CCCC1	-4	2	-5	3531	0.4	8	0
CC(C)(Oc1ccc(Cl)cc1)C(=O)OCn1nnc2ccccc2c1=O	3	-14	1	5479	14	2	7
Cc1cc(NC(=S)Nc2cccc3ccccc23)n[nH]1	nt	-15	23	4088	nt	nt	nt
CC1CN(C(C)CO)C(=O)c2cc(NS(=O)(=O)c3cccs3)ccc2OC1CN(C)Cc1ccc(C(F)(F)F)cc1 (configuration not stated)	-15	nt	nt	nt	1.0	13	3
Cc1sc2ncn(CC(=O)NCCCC(=O)N3CCC(C)CC3)c(=O)c2c1C	8	-14	0	4741	3.0	10	3
CCNC(=O)C1=C(O)c2sccc2N(C)S1(=O)=O	0	-26	-5	4474	5.3	4	1
C/C(C=NNC(=O)CSc1n[nH]c(=O)[nH]c1=O)=C\c1ccccc1	5	nt	nt	nt	5.6	12	9
Cc1nc(C(=O)Nc2ccc(F)cc2)nn1-c1ccc([N+](=O)[O-])cc1	-8	-18	2	5980	5.0	-1	6
Oc1ccccc1OCc1nc2ccccc2s1	-4	-58	2	22098*	2.2	-2	5
N#Cc1ccc(Oc2ccc(/C=N/O)cn2)cc1	nt	-24	3	2367	nt	nt	nt
CCOC(=O)/C(=N/Nc1ccccc1)Sc1nnc(CCc2ccccc2)n1-c1ccccc1	nt	-17	3	2475	nt	nt	nt
C=CCN1C(=O)/C(=C/c2ccc(OC)cc2)S/C1=N/c1nccs1	nt	-27	-2	2548	nt	nt	nt
COc1cc2nc(N(CCCN(C)C)C(=O)c3ccc(C(=O)c4ccccc4)cc3)sc2cc1OC	-4	-5	1	nt	-2.7	-1	-2
COc1cc(C=NNc2ccc(C(F)(F)F)cn2)ccc1O	5	nt	nt	nt	4.6	2	7
CC(=O)c1c(C)[nH]c(C(=O)Nc2ccccc2Cl)c1C	-7	-32	-3	6527	-1.2	-5	-3
Cc1c(C(=O)N2CCCC2)c(S(=O)(=O)NCC(C)c2ccccc2)c(C)n1C (configuration not stated)	13	-8	14	4456	4.3	10	-5
Cc1ccc2c(c1)NC(=O)c1cccc([N+](=O)[O-])c1CO2	5	nt	-8	nt	11	-8	2
Cc1nnc(SCC(=O)NN2C(=O)NC3(CCCCC3)C2=O)s1	4	-23	3	2489	2.5	-5	7
CCn1c(Cc2ccccc2)nnc1SCC(=O)N1CCCCC1	-4	-13	-2	9143	7.8	10	3
C#CCSc1nnc(-c2ccc(OC)cc2)o1	7	-130	-6	2309	6.9	nt	nt
COc1ccc(Cc2nnc(NC(=O)c3ccccc3Cl)s2)cc1OC	-1	-20	-2	4120	0.9	-1	3
CCN(C(=O)CN1C(=O)c2ccc([N+](=O)[O-])cc2C1=O)C1CCCCC1	0	-2	-12	nt	2.3	-12	-11
CC(C)(C)OC(=O)NCc1ccc(NC(=O)c2nc[nH]c2C(=O)NCCNC(=O)c2[nH]cnc2C(=O)Nc2ccc(CNC(=O)OC(C)(C)C)cc2)cc1	14	-9	nt	4114	13	4	-2
COc1cc(SC)ccc1C(=O)OCC(=O)N1CC(=O)Nc2ccccc21	-1	-12	nt	2866	0.2	3	2
O=C(Nc1nc(-c2nc3ccccc3s2)cs1)C1COc2ccccc2O1 (configuration not stated)	48	-13	1	5835	35	5	7
Cc1ccnc(Sc2ccc([N+](=O)[O-])cn2)n1	10	-15	-5	2616	2.3	7	2
COc1cccc(C=NNc2ncnc(N)c2[N+](=O)[O-])c1OC	0	nt	nt	nt	0.2	8	3
O=P(CCN1CCCCC1)(c1ccccc1)c1ccccc1	6	-27	-1	6094	1.0	9	0
CC1CCN(c2ccc([N+](=O)[O-])c(SCCO)c2)CC1	6	-31	7	6274	10	11	15
COc1ccc(OC)c(NC(=O)Cn2c(-c3ccc(Cl)cc3)noc2=O)c1	-7	-5	-4	10572	-1.2	-17	4
CC1(C)Nc2ccccc2C(=O)N1c1ccccc1	5	-21	-3	3511	3.0	7	2

A draw from above in order of SMILES length, descending.
compound	Sa ugtP lethal	PrP 5UTR inh	BJeLR viability	Autofluor counter	RN4220 kill	Mtb hypoxia rep	Mtb hypoxia rep growth
CC(C)(Oc1ccc(Cl)cc1)C(=O)OCn1nnc2ccccc2c1=O	3	-14	1	5479	14	2	7
Cc1cc(NC(=S)Nc2cccc3ccccc23)n[nH]1	nt	-15	23	4088	nt	nt	nt
N#Cc1ccc(Oc2ccc(/C=N/O)cn2)cc1	nt	-24	3	2367	nt	nt	nt

More entries follow:
compound	Sa ugtP lethal	PrP 5UTR inh	BJeLR viability	Autofluor counter	RN4220 kill	Mtb hypoxia rep	Mtb hypoxia rep growth
CCOC(=O)C(C#N)=NNc1ccc(S(=O)(=O)Nc2cc(OC)nc(OC)n2)cc1	3	nt	nt	nt	4.3	3	10
CC(=NOCC(=O)Nn1c(=O)[nH]c2ccccc2c1=O)c1ccccc1	0	nt	nt	nt	-6.6	0	1
Cc1cc(-c2csc(NC(=O)c3cc4ccccc4o3)n2)c(C)n1C	-8	-3	5	23885*	6.3	-1	3
COc1ccc(-c2cc(C(=O)Nc3cc(OC)c(OC)c(OC)c3)no2)cc1	-6	-29	8	3792	5.7	-3	8
Nc1ccc(Nc2ccccc2N)cc1	-14	-40	nt	5461	12	nt	nt
Cc1ccc(NC(=O)c2cccc3c2C(=O)N(C2CCCCC2)C3)cc1	1	-13	-2	4845	4.5	7	6
O=C(c1ccccc1-c1nc(-c2ccc(Cl)cc2)no1)N1CCCC1	6	-26	-6	9821	-0.1	-11	5
O=C1CC(c2ccc(F)cc2)C(n2cncn2)C(O)=C1C1NCCc2ccccc21 (configuration not stated)	-69	-25	1	4391	4.3	17	10
O=C1CCCCC1C(Nc1ccc(Br)cc1)c1ccccc1 (configuration not stated)	10	-25	-1	3430	-0.9	5	3
CC1(C)OC(=O)C=C(CC2NS(=O)(=O)OC3CCCCC23)O1 (configuration not stated)	-1	-15	6	3177	-8.8	5	3
CCC(=NCCN1CCOCC1)c1c(O)n(C2CCCCC2)c(=O)[nH]c1=O	6	-33	-1	5537	6.9	11	-4
COc1ccnc(Oc2ccc(C)cc2C)c1C#N	42	-5	22	8826	1.7	9	6
O=C(OCCN=C1NS(=O)(=O)c2ccccc21)c1cccc([N+](=O)[O-])c1	15	-11	-2	3050	4.2	1	-1
C#CCn1cc(C=NNC(=O)COc2cccc3cccnc23)c2ccccc21	2	nt	nt	nt	0.1	7	-5
COc1ccc(C)cc1S(=O)(=O)N(CC(=O)N1CCCC1)c1ccc(C)cc1	5	-17	8	5421	3.3	0	10
CC1(C)CC(NS(=O)(=O)c2cccc3ccccc23)CC(C)(C)N1	-1	-15	3	6347	0.3	1	8
CCCCCCCCS(=O)c1sc2nc(C)cc(C)c2c1N (configuration not stated)	-9	-16	6	3409	-12	6	1

Pulled by compound from the list above:
compound	Sa ugtP lethal	PrP 5UTR inh	BJeLR viability	Autofluor counter	RN4220 kill	Mtb hypoxia rep	Mtb hypoxia rep growth
Cc1ccccc1NC(=S)N(Cc1ccco1)C(C)c1cccs1 (configuration not stated)	19	-19	0	4505	6.5	-9	3
CC1(C)CC(=O)/C(=C(\O)CCCN2C(=O)c3ccccc3C2=O)C(=NCCO)C1	2	-11	-12	5006	5.5	9	13
Cc1ccc2c(c1)NC(=O)c1cccc([N+](=O)[O-])c1CO2	5	nt	-8	nt	11	-8	2
